Screening results (PubChem BioAssay)
rRNA inh HTS: selective bacterial rRNA inhibition in E. coli; E. coli WT GFP vs humanized-ribosome RFP mutants, fluorescence, 24 h; stronger effect = lower value; DMSO median 0, no signal -100; GFP signal change (wild-type ribosome), % (test concentration not listed); 350,000 tested, 1.6% active;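 active = significant combined selectivity score with lowered wild-type GFP, culture density cut under 30%, mutant RFP and density less affected; inactive = any of these conditions unmet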; also: one replicate is shown; some compounds called inactive have numbers as strong as hits
rRNA inh HTS OD600: second read-out of rRNA inh HTS, no call of its own (marks repeat the call); OD600 change, %; measured here: OD600 growth;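 optical density of the mix in the first replicate; 0 = DMSO median and -100 = no signal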
rRNA inh HTS RFP: also measured in rRNA inh HTS; calls as there; RFP signal change, %; measured here: RFP humanized mutant strains;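 first replicate; 0 = DMSO median and -100 = no signal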
* = called active by the depositor; & = joins results of further samples.

Results follow in this order: rRNA inh HTS | rRNA inh HTS OD600 | rRNA inh HTS RFP
- O=C(NCC[C@@H]1CC[C@H](NC(=O)C2CCCC2)[C@@H](CO)O1)c1cnccn1
 : 3.4 | 5.0 | -3.4
- CN(C)C(=O)[C@H]1[C@H](CO)[C@H]2Cn3c(ccc(-c4ccccc4)c3=O)[C@H]2N1CCC(F)(F)F
 : 4.0 | 21.4 | -3.3
- COc1ccccc1-c1cnc(C(O)c2cccc(CN3CCCCC3)c2)[nH]1 (stereo unspecified)
 : 13.3 | 23.6 | 0.2
- Cc1cccc(S(=O)(=O)N2CC[C@H]3[C@@H](CO)N(C)c4ccc(-c5cccc(C#N)c5)cc4[C@H]32)c1
 : -4.5 | -14.9 | -2.5
- CCCNC(=O)[C@@H]1[C@@H](CO)[C@@H]2Cn3c(ccc(C4=CCCCC4)c3=O)[C@H]1N2Cc1cocn1
 : 3.1 | 0.9 | 0.3
- CN(C)C(=O)c1ccc(-c2cccc(-c3nc(C(=O)NC4CCC4)cc4c3[C@@H](CCO)N([S@](=O)C(C)(C)C)C4)c2)cc1
 : -0.9 | 14.9 | 22.5
- CNC(=O)C[C@@H]1CC[C@H]2[C@H](COc3ccc(NC(=O)Nc4ccc(C)cc4)cc3C(=O)N2C)O1
 : 1.7 | -2.5 | -2.9
- CC(C)NC(=O)N(C)C[C@@H]1Oc2cc(C#C[C@@H](C)O)ccc2S(=O)(=O)N([C@@H](C)CO)C[C@@H]1C
 : 1.9 | 1.8 | -2.3
- CCCNC(=O)C1(C)CCCN(Cc2cc(-c3ccccc3)n(C)n2)C1 (stereo unspecified)
 : -2.8 | 1.2 | 1.0
- C[C@@H]1CN([C@@H](C)CO)C(=O)c2cccc(NC(=O)NC3CCCCC3)c2O[C@@H]1CN(C)Cc1ccc2c(c1)OCO2
 : 1.1 | 6.1 | -0.1
- O=C(CN1CCOCC1)N1CC2(C1)[C@H](c1ccccc1)[C@H](CO)N2Cc1ccc(F)cc1
 : -0.2 | 1.7 | -1.2
- C[C@@H]1CN([C@@H](C)CO)C(=O)Cc2cc(NC(=O)Cc3cn(C)c4ccccc34)ccc2O[C@H]1CN(C)S(=O)(=O)c1ccccc1
 : -4.3 | 3.5 | -1.3
- COc1ccc(NC(=O)N(C)C[C@H]2OCCCC[C@@H](C)Oc3ccc(NC(=O)NC(C)C)cc3C(=O)N([C@H](C)CO)C[C@H]2C)cc1
 : -1.8 | -1.1 | -2.8
- C[C@@H]1CN([C@H](C)CO)C(=O)c2cccc(NS(=O)(=O)c3ccc(F)cc3)c2O[C@@H]1CN(C)C(=O)Nc1ccccc1
 : 2.4 | -3.4 | -0.4
- Cc1cccc(C)c1NC(=O)C1(C)CSCC(=O)N1CCC(C)C (stereo unspecified)
 : -0.5 | -0.9 | -1.1
- COC(=O)C1CCN(S(=O)(=O)CCNC(=O)c2ccccc2)CC1
 : 5.8 | 10.8 | -1.6
- OC[C@@H]1[C@H](c2ccc(C#CC3(O)CCCC3)cc2)[C@@H]2CN(Cc3cncnc3)CCCCN12
 : 1.6 | 12.5 | -2.1
- CC(C)NC(=O)N(C)C[C@@H]1Oc2ncc(C#CCN(C)C)cc2C(=O)N([C@H](C)CO)C[C@@H]1C
 : 8.8 | 1.3 | 2.7
- COCC(=O)N[C@H]1CC[C@H](CC(=O)NCc2ccc(Cl)cc2)O[C@H]1CO
 : 3.0 | 5.2 | 0.8
- CS(=O)(=O)Nc1ccc2c(c1)[C@@H]1C[C@@H](CC(=O)NCCN3CCCCC3)O[C@H](CO)[C@@H]1O2
 : 2.7 | 3.7 | -2.0

Results follow in this order: rRNA inh HTS | rRNA inh HTS OD600 | rRNA inh HTS RFP
- C[C@H](CO)N1C[C@H](C)[C@H](CN(C)S(=O)(=O)c2ccsc2)OCc2ccccc2-c2ccccc2C1=O
 : -3.9 | -13.2 | 0.7
- COc1ccc(CN(C)C[C@H]2Oc3c(NS(=O)(=O)c4ccc(OC)cc4)cccc3C(=O)N([C@@H](C)CO)C[C@@H]2C)cc1
 : -1.6 | -8.9 | -3.6
- CC(C)[C@H]1C/C=C\CCNC(=O)[C@H](C)CC(=O)N1
 : -2.3 | -2.2 | 3.5
- CN(C)CC(=O)N[C@H]1CC[C@H](CCNC(=O)C2CC2)O[C@@H]1CO
 : 0.4 | -4.3 | -1.4
- CCCNC(=O)N1C[C@H](C)[C@H](OC)CN(C)C(=O)c2cc(NC(=O)C3CCC3)ccc2OC[C@H]1C
 : 2.9 | 2.5 | -0.3
- COCC#Cc1ccc2c(c1)O[C@@H](CN(C)S(=O)(=O)c1cccc(F)c1)[C@H](C)CN([C@@H](C)CO)S2(=O)=O
 : -4.9 | -4.9 | 0.2
- CCCNC(=O)NC[C@@H]1[C@H](c2ccc(C3=CCCCC3)cc2)[C@H](CO)N1C(C)=O
 : -5.2 | -18.4 | 5.2
- Cc1noc(C)c1S(=O)(=O)Nc1cccc2c1O[C@@H](CN(C)Cc1ccc(-c3ccccc3)cc1)[C@@H](C)CN([C@@H](C)CO)C2=O
 : -1.5 | -1.0 | 1.1
- O=C(Nc1cccc2ccccc12)c1csc([C@@H]2O[C@H](CO)[C@H](O)[C@H](O)[C@H]2O)n1
 : 8.7 | 11.5 | -2.5
- CC(C)[C@H]1COCc2cn(nn2)CC[C@@H](C)C(=O)N1
 : 7.3 | 2.5 | -5.2
- CC1(C(=O)NS(=O)(=O)c2ccc(F)cc2F)CCN1C(=O)CC1CCCC1 (stereo unspecified)
 : 8.9 | 23.9 | 0.4
- C[C@@H]1CN([C@H](C)CO)C(=O)c2c(c3ccccc3n2C)-c2ccccc2CO[C@H]1CN(C)Cc1ccc2c(c1)OCCN2C
 : 0.5&0.4 | 7.0&-14.8 | 2.4&18.6
- C[C@@H]1CN([C@@H](C)CO)C(=O)c2cccc(NC(=O)NC3CCCCC3)c2O[C@H]1CN(C)C(=O)Nc1ccc2c(c1)OCO2
 : -1.6 | 3.4 | 0.8
- COC(=O)C[C@H]1C[C@H]2c3cc(NS(=O)(=O)c4ccc(OC)cc4)ccc3O[C@H]2[C@@H](CO)O1
 : 0.9 | -10.8 | -8.0
- COc1cccc(C(O)c2nc(-c3cccc4cccnc34)cs2)c1 (stereo unspecified)
 : -42.0 | -65.8 | -5.7
- Cc1ccccc1C(C)(O)c1cnc(C)n1Cc1ccccc1 (stereo unspecified)
 : 2.4 | -24.6 | -3.4
- CNC(=O)C[C@@H]1CC[C@H]2[C@H](COc3ccc(NC(=O)Nc4c(C)noc4C)cc3C(=O)N2C)O1
 : -0.7 | 1.4 | -2.4
- COc1ccc(NC(=O)Nc2ccc3c(c2)CC(=O)N([C@H](C)CO)C[C@@H](C)[C@H](CN(C)Cc2ccc(Cl)c(Cl)c2)O3)cc1
 : 1.4 | 8.4 | -0.1
- CCC(=O)N(C)C[C@@H]1Oc2ncc(C#Cc3ccncc3)cc2C(=O)N([C@H](C)CO)C[C@H]1C
 : -3.8 | -21.1 | -2.3
- C[C@@H]1CCCCO[C@@H](CN(C)Cc2ccc(Cl)c(Cl)c2)[C@@H](C)CN([C@H](C)CO)C(=O)c2cc(NC(=O)CCCN(C)C)ccc2O1
 : 2.8 | -3.5 | 6.9

An excerpt of these results, as labelled records.
CNC(=O)C[C@@H]1CC[C@H]2[C@H](COc3ccc(NC(=O)Nc4ccc(C)cc4)cc3C(=O)N2C)O1
  rRNA inh HTS: 1.7
  rRNA inh HTS OD600: -2.5
  rRNA inh HTS RFP: -2.9
CC(C)[C@H]1C/C=C\CCNC(=O)[C@H](C)CC(=O)N1
  rRNA inh HTS: -2.3
  rRNA inh HTS OD600: -2.2
  rRNA inh HTS RFP: 3.5

Other compounds
Results follow in this order: rRNA inh HTS | rRNA inh HTS OD600 | rRNA inh HTS RFP
- C[C@H]1CN([C@@H](C)CO)C(=O)c2c(c3ccccc3n2C)-c2ccccc2CO[C@H]1CN(C)S(=O)(=O)CC(F)(F)F
 : -6.6 | 7.6 | -0.2
- C[C@H](CO)N1C[C@H](C)[C@H](CN(C)C(=O)Nc2cccc3ccccc23)OCCCC[C@H](C)Oc2ccc(NS(=O)(=O)c3cn(C)cn3)cc2C1=O
 : -1.9 | -12.6 | 5.5
- COc1ccc(NC(=O)Nc2ccc3c(c2)C(=O)N([C@@H](C)CO)C[C@@H](C)[C@@H](CN(C)Cc2ccc4c(c2)OCO4)OCCCC[C@H](C)O3)cc1
 : 2.3 | 2.3 | 8.7
- O=C(C[C@@H]1CC[C@@H](NC(=O)Nc2cc(F)ccc2F)[C@H](CO)O1)NCCCN1CCOCC1
 : 3.2 | 8.7 | 0.2
- CNC[C@H]1Oc2ccc(NS(=O)(=O)c3c(C)noc3C)cc2C(=O)N([C@H](C)CO)C[C@H]1C
 : 2.2 | 1.0 | -1.1
- O=C(NC1CCCCC1)N[C@H]1C=C[C@@H](CC(=O)N2CCOCC2)O[C@@H]1CO
 : 1.9 | 7.7 | 0.8
- CCN(C(=O)COC(=O)CNS(=O)(=O)c1ccc(C)cc1)C1CCS(=O)(=O)C1 (stereo unspecified)
 : 8.3 | 8.7 | 1.1
- OC[C@@H]1[C@H](c2ccccc2)C2(CN(Cc3ccccc3F)C2)N1Cc1ccccc1F
 : -54.3 | -72.5 | -15.4
- C[C@H]1CN([C@@H](C)CO)C(=O)c2cc(NS(=O)(=O)c3ccc(F)cc3)ccc2O[C@H]1CN(C)CC1CCCCC1
 : 2.4 | 3.2 | -0.1
- C[C@H](CO)N1C[C@H](C)[C@@H](CN(C)Cc2ccc(C(F)(F)F)cc2)Oc2ccc(NC(=O)NC3CCCCC3)cc2C1=O
 : -3.4 | -16.6 | 0.0
- CCNC(=O)C[C@@H]1CC[C@H]2[C@@H](COc3ccc(NC(=O)Nc4ccccc4Cl)cc3C(=O)N2C)O1
 : -1.8 | -6.8 | 4.0
- Cc1ccc(Cc2c(-c3ccc(Cl)cc3)nc3ccc(Cl)cn23)cc1
 : -4.0 | -28.2 | 5.7
- C[C@@H]1CN([C@@H](C)CO)C(=O)Cc2cc(NC(=O)Nc3ccc(C(F)(F)F)cc3)ccc2O[C@@H]1CN(C)Cc1ccc(C(=O)Nc2ccccc2N)cc1
 : 0.5 | -5.6 | 0.7
- CN1C(=O)c2cc(NC(=O)C3CCCC3)ccc2OC[C@@H]2O[C@H](CC(=O)NCC3CC3)CC[C@@H]21
 : 1.1 | 1.7 | -1.8
- O=C(C[C@H]1CC[C@H](NC(=O)Nc2cccc(F)c2)[C@@H](CO)O1)NCC1CC1
 : 2.3 | 1.8 | -2.6
- COc1ccc(CN(C)C[C@@H]2OCCCC[C@H](C)Oc3ccc(NC(=O)Nc4ccc(OC)cc4)cc3C(=O)N([C@H](C)CO)C[C@H]2C)cc1
 : 1.7 | -12.8 | 14.3
- C[C@@H]1CCCCO[C@@H](CN(C)S(=O)(=O)c2ccc(F)cc2)[C@H](C)CN([C@H](C)CO)C(=O)c2cc(NS(=O)(=O)c3ccccc3)ccc2O1
 : -1.7 | 8.2 | -0.6
- O=C(NCc1nnnn1-c1ccc(F)cc1)c1cc2ccccc2o1
 : -0.5 | -6.4 | 4.0
- OC(c1cccc(Cl)c1)c1nc(-c2ccc(Cl)cc2)cs1 (stereo unspecified)
 : -61.5 | -78.2 | -16.4
- CC(=O)N1CCCCN2[C@@H](CO)[C@@H](c3ccc(-c4ccccc4)cc3)[C@@H]2C1
 : 2.7 | -7.2 | -0.4

Results follow in this order: rRNA inh HTS | rRNA inh HTS OD600 | rRNA inh HTS RFP
- C[C@@H]1CN([C@H](C)CO)C(=O)c2cccc(N(C)C)c2O[C@@H]1CN(C)Cc1ccc(-c2ccccc2)cc1
 : 1.1 | 1.6 | -0.4
- CN1CCN(C(=O)C[C@H]2C=C[C@@H](NS(=O)(=O)c3cccc(F)c3)[C@@H](CO)O2)CC1
 : -1.1 | 6.7 | -0.4
- C[C@H]1CN([C@@H](C)CO)C(=O)CCCn2cc(nn2)CO[C@H]1CN(C)C(=O)C1CC1
 : 2.4 | 3.0 | 1.3
- O=C(Nc1ccccc1C(=O)Nc1nccs1)c1ccccc1
 : -32.5 | -52.6 | -12.6
- COc1ccc(NC(=O)N(C)C[C@H]2Oc3c(NC(=O)Nc4ccccc4)cccc3C(=O)N([C@@H](C)CO)C[C@H]2C)cc1
 : -5.1 | -7.9 | 2.6
- C[C@@H]1CCCCO[C@@H](CN(C)C(=O)Nc2cccc3ccccc23)[C@@H](C)CN([C@@H](C)CO)C(=O)c2cc(NC(=O)NC3CCCCC3)ccc2O1
 : 4.2 | 9.9 | 0.6
- COc1ccc2c3c(n(C)c2c1)[C@H](CO)N(Cc1ccccc1Cl)CC31CN(C(C)=O)C1
 : -4.0 | -5.0 | 0.9
- CO[C@H](CN(C)C(=O)c1cnccn1)[C@@H](C)CN([C@@H](C)CO)S(=O)(=O)c1ccccc1
 : 2.9 | 2.9 | -6.5
- CCNC(=O)C[C@@H]1CC[C@H]2[C@H](COc3ccc(NC(=O)Nc4cccc(C)c4)cc3C(=O)N2C)O1
 : -0.8 | -4.6 | -0.9
- CC(C)NC(=O)N(C)C[C@@H]1Oc2ccc(NC(=O)C3CC3)cc2C(=O)N([C@@H](C)CO)C[C@@H]1C
 : 4.9 | 0.5 | 2.1
- C[C@@H]1CN([C@H](C)CO)C(=O)c2cc(NC(=O)C3CCCCC3)ccc2O[C@@H]1CN(C)CC1CC1
 : 4.4 | 15.7 | -1.8
- Cc1ccc(S(=O)(=O)N(C)C[C@@H]2Oc3cc(C#Cc4ccccc4)ccc3S(=O)(=O)N([C@@H](C)CO)C[C@@H]2C)cc1
 : 2.6 | 3.6 | -1.2
- C/C=C/c1ccc2c(c1)O[C@@H](CN(C)C)[C@H](C)CN([C@@H](C)CO)S2(=O)=O
 : 0.7 | -5.6 | -1.4

Random excerpt: two records from the list.
Results follow in this order: rRNA inh HTS | rRNA inh HTS OD600 | rRNA inh HTS RFP
- CS(=O)(=O)Nc1ccc2c(c1)[C@@H]1C[C@@H](CC(=O)NCCN3CCCCC3)O[C@H](CO)[C@@H]1O2
 : 2.7 | 3.7 | -2.0
- Cc1ccc(Cc2c(-c3ccc(Cl)cc3)nc3ccc(Cl)cn23)cc1
 : -4.0 | -28.2 | 5.7

Some of the compounds tested; rates above refer to the full screens.
